Bioassay records: PubChem BioAssay, ICCB-Longwood Screening Facility, Harvard Medical School
GIV Gai3 FP – GIV-Galpha-i interaction inhibition; Galpha-i3/FITC-GIV peptide fluorescence polarization, 90 min; hits give low values; scaled: aluminum fluoride 0%, vehicle 100%; percent of control (FP), % (test concentration not listed); P08753; 210,000 tested, 0.42% active;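 active means replicate mean at 85% of control or lower, very high polarization wells dropped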;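 further: wells of about 15 µL received 100 nL stock; the first replicate is given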
Target sequence (P08753 whole entry, looked up): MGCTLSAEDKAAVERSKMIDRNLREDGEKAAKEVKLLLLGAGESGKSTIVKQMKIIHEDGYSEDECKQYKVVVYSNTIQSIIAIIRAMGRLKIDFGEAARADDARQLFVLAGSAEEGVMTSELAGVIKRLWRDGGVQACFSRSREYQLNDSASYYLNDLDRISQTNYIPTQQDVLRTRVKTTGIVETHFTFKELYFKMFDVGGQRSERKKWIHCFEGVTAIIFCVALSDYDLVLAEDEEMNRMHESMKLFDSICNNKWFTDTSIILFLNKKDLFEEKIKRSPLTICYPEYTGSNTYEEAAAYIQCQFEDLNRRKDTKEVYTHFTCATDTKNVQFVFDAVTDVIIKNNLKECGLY
HCMV UL50-53 inh – cytomegalovirus nuclear egress complex inhibition | HTRF UL50-UL53 interaction, normalized percent inhibition | 190,000 tested, 0.15% active | inhibition, % (test concentration not listed);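 active means both replicates at 50% or more, plus weaker picks with an unusually low signal ratio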;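 further: stock transfer was 100 nL into about 20 µL; 0% = negative control wells and 100% = wells with untagged competitor protein; inactives centre near -12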
Sa growth 42C – inhibitors of Staphylococcus aureus growth at 42 °C; S. aureus RN4220 growth, OD600, 20 h; hits give low values; relative growth, % (concentration not given with the values); 170,000 tested, 0.53% active;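 active means growth at 42 °C up to 50% and 20 or more points under that at 30 °C, or under 10% at both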;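 further: 300 nL library stock went into each well; scaled to the means of positive and negative controls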
Sa growth 42C second temp – further read-out of Sa growth 42C, marked with its call; relative growth, %; measured here: growth at 30 °C;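 optical density after 20 h as mean of two plates; 100% = untreated growth and lower means inhibition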
* marks the source's active call; other numbers are inactive results; x = no result given; & = joins results of further samples.

cpd	SMILES	GIV Gai3 FP	HCMV UL50-53 inh
1	Cc1ccccc1C(=O)N1CCC(C(=O)Nc2ccc(F)cc2F)CC1	107.3	-15.0
2	O=C(CCN1C(=O)NC2(CCCC2)C1=O)Nc1nc2ccccc2[nH]1	x	-9.3
3	COc1cc(C(=O)NCC(c2cccs2)S(=O)(=O)c2cccs2)cc(OC)c1OC (stereo not given)	96.6	x
4	Cc1cc(-n2c(C)cc(C(=O)COC(=O)c3ccc(C)c(NC(=O)c4ccco4)c3)c2C)no1	x	-28.6
5	CC(C)CNC(=O)NCc1c(-n2cccc2)sc2c1CCN(C)C2	103.4	-28.2
6	Cc1nn(-c2cc(N(C)C)ncn2)c(C)c1CCC(=O)NCC1CCCO1 (stereo not given)	99.0	-32.1
7	O=C(CC1N=C2c3ccccc3N=C(SCc3ccc(F)cc3)N2C1=O)NCc1ccco1 (stereo not given)	96.6	-16.1
8	COC(OC)(OC)c1cc2ccccc2c(=O)[nH]1	x	-11.0
9	Cn1c(=O)c(=O)n(C)c2cc(S(=O)(=O)N3CCCC3C(=O)NCc3cccs3)ccc21 (stereo not given)	104.9	1.2
10	CCOC(=O)c1cccc(NC(=O)CNS(=O)(=O)c2ccc3nc(C)sc3c2)c1	103.5	1.2
11	Cc1ccccc1C1NC(c2ccccc2C)C(C)C(=O)C1C (stereo not given)	99.3	x
12	COc1cc(/C=C2/C(=O)ON=C2c2ccccc2)ccc1O	129.5	x

cpd	Sa growth 42C	Sa growth 42C second temp
1	86.0	89.9
2	84.9	93.7
3	121.0	81.9
4	71.2	89.3
5	x	x
6	x	x
7	66.4	48.9
8	135.0	89.6
9	109.2	94.6
10	86.1	82.8
11	123.4	82.6
12	75.8	73.9

(list continues)
cpd	SMILES	GIV Gai3 FP	HCMV UL50-53 inh
13	Cc1nc(NC2=NC(C(=O)Nc3ccc(Cl)cc3)CC(=O)N2)nc2ccccc12 (stereo not given)	94.9	-4.3
14	CCCCN(CC)CCCNC(=O)Nc1sc2nc3n(c(=O)c2c1C)CCC(C)CC3 (stereo not given)	106.7	0.8
15	Cc1ccc(Nc2nc(N)nc(CSc3nnc4n3CCCCC4)n2)cc1	x	-33.8
16	O=C(c1ccco1)N1CCc2sccc2C1c1ccc(OC(F)(F)F)cc1 (stereo not given)	97.5	-36.2
17	Cc1cccc(C)c1NC(=O)c1c(C(F)(F)F)ccnc1SCCN(C)C	106.6	0.1
18	Nc1nnc(SCc2ccccc2)s1	104.6	8.7
19	CCOC(=O)c1ccc(NC(=O)c2c(C)oc3ccc(OCC)cc23)cc1	107.2	-9.8
20	O=c1c(=O)n(-c2ccccc2)ccn1Cc1ccccc1	106.2	-22.4
21	O=C(c1cc(-c2cccnc2)n[nH]1)N1CCCC(C(=O)N2CCN(c3cccc(Cl)c3)CC2)C1 (stereo not given)	98.1	-10.6
22	C=CCOc1ccc(/C(O)=C2/C(=O)C(=O)N(CC3CCCO3)C23C(=O)N(C)c2ccccc23)cc1 (stereo not given)	104.1	x
23	O=C(O)c1cccc(N2C(=O)CSC2c2ccccc2)c1 (stereo not given)	106.1	x
24	CC(C)(Cc1cc(=O)c2ccccc2[nH]1)C1CCCCC1	101.6	-16.5

cpd	Sa growth 42C	Sa growth 42C second temp
13	x	x
14	100.9	78.5
15	96.2	88.7
16	66.4	65.9
17	105.1	99.1
18	99.3	92.8
19	x	x
20	114.6	90.9
21	x	x
22	108.5	104.8
23	123.3	89.2
24	89.1	87.0

Continued.
cpd	SMILES	GIV Gai3 FP	HCMV UL50-53 inh
25	CC1=C(C(=O)OCCOC(C)C)C(c2cc3c(cc2Br)OCO3)C2=C(CCCC2=O)N1 (stereo not given)	104.4	-5.5
26	O=C(CSc1nc(-c2ccccc2)cs1)Nc1ccnn1C1CCCC1	x	-23.5
27	CN(C)S(=O)(=O)c1ccc(C(=O)Nc2c3c(nn2-c2ccc([N+](=O)[O-])cc2)CSC3)cc1	104.7	-28.5
28	O=S(=O)(c1ccccc1)N1CCNCC1	x	-35.8
29	O=C(CCNS(=O)(=O)c1ccc2c(c1)CCN2C(=O)C1CC1)N1CCN(c2cccc(C(F)(F)F)c2)CC1	106.5	x
30	O=C(NCCCN1CCOCC1)c1cc2nc(-c3ccc(Cl)c(Cl)c3)cc(C(F)(F)F)n2n1	104.6	-4.1
31	COCCOC(=O)c1c(C)oc2cc(Br)c(OC(C)C(=O)OC)cc12 (stereo not given)	100.9	-6.3
32	COc1ccc(C(=O)NC23CC4CC(CC(C4)C2)C3)cc1	105.7	-9.2
33	COc1cc(C2CC(=O)c3c([nH]c(C(=O)OCC4CCCCC4)c3C)C2)cc(OC)c1OC (stereo not given)	108.6	-1.5
34	O=C(CCC1COc2ccccc2O1)N1CCN(Cc2ccccc2)CC1 (stereo not given)	104.2	-13.5
35	COC(=O)c1ccc(NC(=O)CC2C(=O)N(c3ccccc3)C(=O)N2Cc2ccc(F)cc2)cc1 (stereo not given)	102.5	x
36	O=C(NC1CCCCCC1)c1ccc(CS(=O)c2cccc(Cl)c2)o1 (stereo not given)	111.9	x

cpd	Sa growth 42C	Sa growth 42C second temp
25	x	x
26	72.4	79.5
27	x	x
28	116.6	89.3
29	124.0	80.0
30	x	x
31	94.2	90.4
32	91.1	90.4
33	97.9	95.1
34	101.0	93.3
35	84.2	49.8
36	99.5	87.6

Brought forward from above: two compounds, then new ones.
cpd	SMILES	GIV Gai3 FP	HCMV UL50-53 inh
35	COC(=O)c1ccc(NC(=O)CC2C(=O)N(c3ccccc3)C(=O)N2Cc2ccc(F)cc2)cc1 (stereo not given)	102.5	x
36	O=C(NC1CCCCCC1)c1ccc(CS(=O)c2cccc(Cl)c2)o1 (stereo not given)	111.9	x
37	COc1ccccc1NCc1cccn1-c1nnc(N2CCOCC2)s1	109.2	x
38	COCCOc1ccc(C(F)(F)F)cc1NCC(=O)NCc1ccc2c(c1)OCO2	x	-18.9
39	O=C(CCCN1C(=O)c2cccnc2Oc2ccccc21)N1CCN(c2ccccn2)CC1	94.0	10.9
40	CCOc1ccc(-n2nc(CO)c(C(=O)NCc3cccs3)n2)cc1	99.7	-1.9
41	Cc1nn(-c2ccccc2)c2sc(C(=O)OCC(=O)Nc3ccccc3)cc12	x	-5.0
42	Nn1c(SCC(=O)N2CCc3ccccc32)nncc1=O	106.4	-33.9
43	CCOC(=O)CCc1ccc(OCc2c(C)c(C)c(C)c(C)c2C)cc1	102.7	5.8
44	O=c1c2ccccc2nc2n1CCO2	103.8	-46.2
45	Cc1ccc(C2c3[nH]c4ccccc4c3CCN2C(=O)c2ccccc2Br)cc1 (stereo not given)	99.3	x
46	Cc1c(C(=O)NC2CCCC2)nnn1-c1ccc2noc(-c3ccc(Br)cc3)c2c1	107.5	0.0
47	CCCc1nnc(SCC(=O)N2CCCC2)n1CCOC	100.9	-14.5
48	CCCc1cc(=O)[nH]c(SCC(=O)N2CCC(C)CC2)n1	104.2	-14.8

cpd	Sa growth 42C	Sa growth 42C second temp
35	84.2	49.8
36	99.5	87.6
37	98.3	90.9
38	107.4	84.8
39	x	x
40	95.1	96.6
41	99.3	101.1
42	91.2	80.8
43	104.5	103.6
44	94.2	85.2
45	91.8	89.7
46	x	x
47	94.5	93.2
48	95.2	95.1

More compounds
cpd	SMILES	GIV Gai3 FP	HCMV UL50-53 inh
49	CCC(C)OC(=O)C1=C(C)NC(=O)NC1c1ccc(F)c(Br)c1 (stereo not given)	102.7	11.6
50	CC(C)Cn1c(=O)c2ccccc2n2c(CCC(=O)O)nnc12	106.8	-6.1
51	Cc1c(C(=O)Nc2ccc(F)c(Cl)c2)sc2nc3n(c(=O)c12)CCC3	103.5	-8.1
52	COc1ccc(C2=C(C)C(=NCc3ccc(OC(C)C)cc3)NS2(=O)=O)cc1	101.7	-20.1
53	COc1cc(NC(=O)c2cnc3c(-c4ccc(F)cc4)c(C)nn3c2C)cc(OC)c1	97.3	x
54	Cc1cc(C(=O)O)c2cc(F)ccc2n1	106.2	3.8&-22.9
55	CCOC(=O)c1nc2cc(C)c(C)cc2nc1NC1CCCCC1	98.2	-32.1
56	CC(C)(O)C#Cc1ccccn1	99.3	-0.1
57	CC(=O)Nc1ccc(C(=O)N2CC(C)OC(C)C2)cc1 (stereo not given)	105.4	-6.0
58	Cc1cc(-n2nnc(C(=O)OCc3ccccc3)c2C)ccc1Br	103.0	-16.7
59	Cc1ccc2oc(-c3cc(N=C/C=C/c4ccc5c(c4)OCO5)ccc3O)nc2c1	103.6	-25.4
60	COc1ccc(-n2nc(C(=O)Nc3cc(OC)ccc3OC)c(=O)n(C)c2=O)cc1	102.7	-23.4

cpd	Sa growth 42C	Sa growth 42C second temp
49	102.9	84.7
50	93.4	89.4
51	108.9	103.9
52	106.2	88.5
53	85.3	97.9
54	98.5	87.3
55	x	x
56	98.8	101.0
57	118.6	78.3
58	x	x
59	106.7	94.7
60	x	x

Remaining list, next part
cpd	SMILES	GIV Gai3 FP	HCMV UL50-53 inh
61	O=C1CCCc2[nH]c(=O)c(C(=O)Nc3cccc(Br)c3)cc21	102.6	-24.4
62	COc1ccc(-c2cc(-c3ccccc3)c(C#N)c(SCC(O)CS(=O)(=O)Cc3ccc(Cl)cc3)n2)cc1 (stereo not given)	107.7	9.2
63	O=C(Nc1ccccc1)N(Cc1nnc2n1CCCCC2)c1ccc(I)cc1	x	2.8
64	CCOc1ccc(C2c3c(oc4ccc(C)cc4c3=O)C(=O)N2CCCN(C)C)cc1OC (stereo not given)	102.6	x
65	CCc1ccc(COC(=O)c2nnn(-c3ccc(C)cc3)c2C)cc1	100.0	7.8
66	NS(=O)(=O)c1ccc(-c2ccc(/C=C3/SC(=S)N(C4CCS(=O)(=O)C4)C3=O)o2)cc1 (stereo not given)	247.2	-7.4
67	COc1ccc(Cl)cc1Nc1cc(C)nc2nc(-c3ccccc3C)nn12	106.2	-13.5
68	CCS(=O)(=O)c1ccc(O)c(NC(=O)COc2ccc(Cl)c(C)c2)c1	96.3	-16.5
69	O=C(CSc1cccc[n+]1[O-])Nc1ccc(F)c(F)c1	x	-17.9
70	CC1CCN(Cc2cc(Cl)c3cccnc3c2O)CC1	x	-4.2
71	O=C(CS(=O)(=O)c1cccc2nsnc12)N1CCN(c2ccccc2)CC1	106.0	x
72	COc1ccccc1CNC(=O)c1sc2nc3n(c(=O)c2c1C)CCC3	102.3	0.8

cpd	Sa growth 42C	Sa growth 42C second temp
61	x	x
62	102.6	101.2
63	101.5	91.1
64	114.5	102.2
65	x	x
66	x	x
67	103.4	82.1
68	86.9	71.8
69	99.1	88.7
70	82.0	95.1
71	103.3	95.1
72	111.2	96.9

The results go on:
cpd	SMILES	GIV Gai3 FP	HCMV UL50-53 inh
73	O=C(Nc1ccc(S(=O)(=O)N2CCOCC2)cc1)c1oc(=O)c2ccccc2c1-c1ccccc1	95.2	3.3
74	O=C(NN1C(=O)c2ccccc2C1=O)C(O)c1ccccc1 (stereo not given)	99.6	-9.2
75	COc1ccc(Cl)cc1NCC(=O)N1CCc2ccccc2C1	x	23.1
76	O=C(CSc1nc2ccccc2n1S(=O)(=O)c1ccc(Cl)cc1)NCCc1ccccc1	98.9	x
77	O=C(c1ccc(Cn2c(=O)c(=O)n(Cc3ccc(F)cc3Cl)c3cccnc32)cc1)N1CCOCC1	100.2	24.7
78	O=C(c1cccc(S(=O)(=O)NCc2ccccc2)c1)N1CCCC1	x	-36.7
79	CCC(C)NC(=O)CN1C(=O)C2C3C=CC(C3)C2C1=O (stereo not given)	101.5	-7.5
80	COc1ccc(-n2c(-c3ccco3)nc3c(cnn3-c3ccc(Cl)cc3)c2=O)cc1	106.3	-0.6
81	O=c1[nH]c(=O)n(CCO)c2nonc12	101.1	-19.1
82	Cc1noc(C)c1COc1ccc(C(=O)OCC(N)=O)cc1	x	-19.9

cpd	Sa growth 42C	Sa growth 42C second temp
73	126.7	96.5
74	134.8	98.8
75	92.4	105.2
76	84.7	86.6
77	x	x
78	115.5	78.5
79	115.8	95.5
80	97.6	81.3
81	95.2	91.8
82	94.4	94.2

Of the compounds above, 9 have a thiophene ring, fused or not.
cpd	SMILES	GIV Gai3 FP	HCMV UL50-53 inh
3	COc1cc(C(=O)NCC(c2cccs2)S(=O)(=O)c2cccs2)cc(OC)c1OC (stereo not given)	96.6	x
5	CC(C)CNC(=O)NCc1c(-n2cccc2)sc2c1CCN(C)C2	103.4	-28.2
9	Cn1c(=O)c(=O)n(C)c2cc(S(=O)(=O)N3CCCC3C(=O)NCc3cccs3)ccc21 (stereo not given)	104.9	1.2
14	CCCCN(CC)CCCNC(=O)Nc1sc2nc3n(c(=O)c2c1C)CCC(C)CC3 (stereo not given)	106.7	0.8
16	O=C(c1ccco1)N1CCc2sccc2C1c1ccc(OC(F)(F)F)cc1 (stereo not given)	97.5	-36.2
40	CCOc1ccc(-n2nc(CO)c(C(=O)NCc3cccs3)n2)cc1	99.7	-1.9
41	Cc1nn(-c2ccccc2)c2sc(C(=O)OCC(=O)Nc3ccccc3)cc12	x	-5.0
51	Cc1c(C(=O)Nc2ccc(F)c(Cl)c2)sc2nc3n(c(=O)c12)CCC3	103.5	-8.1
72	COc1ccccc1CNC(=O)c1sc2nc3n(c(=O)c2c1C)CCC3	102.3	0.8

cpd	Sa growth 42C	Sa growth 42C second temp
3	121.0	81.9
5	x	x
9	109.2	94.6
14	100.9	78.5
16	66.4	65.9
40	95.1	96.6
41	99.3	101.1
51	108.9	103.9
72	111.2	96.9
